Cruzain inh Det: qHTS Assay for Promiscuous and Specific Inhibitors of Cruzain (with detergent); Cruzipain (Trypanosoma cruzi), P25779; purified cruzain, Z-FR-AMC fluorescence, 0.01% Triton; Potency, µM, for inactives: max response, negative = inhibition, hits mostly inhibitors; 200,000 tested, 0.43% active; AID 1478, 2009;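 also: plate controls were neutral wells for no effect and buffer without enzyme for full effect; nearly all actives have a fitted effect of over 40% in size; top concentration of the series not given in the record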
Target sequence (P25779 123-467 limits assumed): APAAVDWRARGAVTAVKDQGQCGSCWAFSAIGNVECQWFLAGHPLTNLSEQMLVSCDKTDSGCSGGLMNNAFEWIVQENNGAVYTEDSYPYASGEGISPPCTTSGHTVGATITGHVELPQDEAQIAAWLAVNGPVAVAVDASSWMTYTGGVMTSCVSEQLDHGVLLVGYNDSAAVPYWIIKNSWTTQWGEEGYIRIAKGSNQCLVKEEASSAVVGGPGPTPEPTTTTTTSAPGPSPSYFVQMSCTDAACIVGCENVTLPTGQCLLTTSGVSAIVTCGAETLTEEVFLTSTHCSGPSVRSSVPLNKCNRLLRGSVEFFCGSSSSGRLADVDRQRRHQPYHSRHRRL
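Detergent-containing arm of a paired screen for aggregation-based inhibition: 0.01% Triton X-100 present. Cruzain at 1.5 nM cleaved 2 uM Z-FR-AMC at pH 5.5 with 5 mM DTT; AMC fluorescence gain over 60 s measured activity.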
NS1 inh: qHTS Assay for Inhibitors of Influenza NS1 Protein Function; S. cerevisiae slowed by influenza A NS1, growth recovery by OD600; Potency, µM (series often up to 46.1 µM), for inactives: top-dose activity, positive = more growth; 270,000 tested, 0.4% active; AID 2326, 2010; active means well fitted rising curve with a large enough effect; inconclusive means small, poorly fitted or top-dose-only effect; inactive means no such curve, though single readings can be large or run the other way; also: nearly all actives have a fitted effect of over 50% in size
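A cell-based growth assay was used: compounds that relieve NS1-induced slow growth of budding yeast raise OD600. Assay medium was yeast nitrogen base with ammonium sulphate and -URA supplement, pH 6.0, with 2% galactose.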
Cruzain inh noDet: qHTS Assay for Promiscuous and Specific Inhibitors of Cruzain (without detergent); Potency, µM, for the others: max response, negative = inhibition, hits mostly inhibitors; AID 1476, 2009; 200,000 tested, 2.3% active; Cruzipain (Trypanosoma cruzi), P25779; purified cruzain, Z-FR-AMC fluorescence, no detergent;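 also: plate controls were enzyme without inhibitor for no effect and buffer without enzyme for full effect; nearly all actives have a fitted effect of over 40% in size; top concentration of the series not given in the record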
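Detergent-free condition (0.00005% Triton X-100) in acetate buffer pH 5.5 with DTT. 1.5 nM enzyme and compound were pre-mixed 15 min, then 2 uM Z-FR-AMC substrate added; reaction progress from fluorescence change between first and third reads (60 s).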
LASV entry inh: qHTS for Inhibitors of binding or entry into cells for Lassa Virus; Lassa virus pseudotype entry inhibition, cell reporter; control for the full effect not named in the record; 300,000 tested, 1.2% active; Potency, µM (titrated, usually from 37.9 µM), inactives show top-dose activity change, negative = inhibition, actives largely listed as inhibitors; active means well fitted inhibition curve with a large enough effect; inconclusive means small, poorly fitted or top-dose-only effect, or effect the other way; inactive means flat fitted curve, though single readings scatter; tested in HEK293 cells; also: % is scaled to controls: 0 for no effect and ±100 for the full control effect; nearly all actives have a fitted effect of over 50% in size; luciferase read-out
MARV entry inh: qHTS for inhibitors of binding or entry into cells for Marburg Virus | Marburg virus pseudotyped entry inhibition, cell reporter; control for the full effect not named in the record; about a third of the inactives were read at about 46 µM | Potency, µM (series often up to 37.8 µM), for inactives: top-dose activity change, negative = inhibition, hits mostly inhibitors | 300,000 tested, 1.8% active; active = well fitted inhibition curve with a large enough effect; inconclusive = small, poorly fitted or top-dose-only effect, or effect the other way; inactive = flat fitted curve, though single readings scatter; tested in HEK293 cells; about a fifth of its hits are not listed in these tables; also: % is scaled to controls: 0 for no effect and ±100 for the full control effect; luciferase read-out
2A StopGo: High Throughput Screening for Foot and Mouth Disease Virus Antivirals. human cells with a luciferase reporter of 2A StopGo recoding; control for the full effect not named in the record. Potency, µM (top dose mostly 57.9 µM), for inactives: at the top dose signal change, negative = less light. 410,000 tested, 1.2% active. AID 1159524, 2015; active = well fitted falling curve with a large enough effect; inconclusive = small, poorly fitted or top-dose-only effect; inactive = no such curve, though single readings can be large or run the other way; tested in HEK293T cells; also: % is scaled to controls: 0 for no effect and ±100 for the full control effect; nearly all actives have a fitted effect of over 45% in size; luciferase light after 4 h
SARS PLpro yeast: qHTS of Yeast-based Assay for SARS-CoV PLP; S. cerevisiae expressing SARS-CoV PLpro, growth rescue; control for the full effect not named in the record; Potency, µM (titrated, usually from 32.9 µM), for inactives: top-dose activity, positive = growth rescue; 330,000 tested, 0.19% active; active means well fitted rising curve with a large enough effect; inconclusive means small, poorly fitted or top-dose-only effect; inactive means no such curve, though single readings can be large or run the other way; also: 0% is about no effect; nearly all actives have a fitted effect of over 55% in size; growth read by luminescence after 48 h
RE007 growth inh: qHTS Assay for Inhibitors of the HIV-1 protein Vpr; Potency, µM (titrated, usually from 92.2 µM), for the others: at the highest dose activity change, negative = less growth; S. pombe RE007 Vpr strain, BacTiter-Glo ATP luminescence, 24 h; control for the full effect not named in the record; AID 651644, 2012; 360,000 tested, 0.21% active; active = well fitted falling curve with a large enough effect; inconclusive = small, poorly fitted or top-dose-only effect; inactive = no such curve, though single readings can be large or run the other way;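 also: % is scaled to controls: 0 for no effect and ±100 for the full control effect; nearly all actives have a fitted effect of over 50% in size; the assay follows cell death caused by Vpr and the record does not say whether a fall means rescue or toxicity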
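Fission yeast RE007 carrying one integrated HIV-1 vpr copy, seeded at OD 0.01 in PMG+AL medium with 23 nL pinned compound. Grown 24 h at 30 degrees; viability read by BacTiter-Glo luminescence after 5 min.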
* hit, by the source's call; ? = inconclusive; nt = no result given; & = joins results of further samples; [ ] = another dose, or the depositor's remark. Unless noted, calls follow the shape of the dose curve; as a rule, active = well fitted curve in the direction sought with a large enough effect; inconclusive = small, poorly fitted or top-dose-only effect, or another doubt; inactive = no such curve, though single readings can be large; an effect the other way counts as inactive or inconclusive. Potency is read from the fitted curve at half-maximal effect. Compounds as they come; about 4.7% have a hit in one of these screens.

SMILES	Cruzain inh Det	NS1 inh	Cruzain inh noDet	LASV entry inh	MARV entry inh	2A StopGo	SARS PLpro yeast	RE007 growth inh
Cc1ccc(CNC(=O)c2cnc(N3CCCCC3)c3ccccc23)cc1	-13%	nt	-9%	-5%[46.1 µM]	nt	-24%	nt	nt
COC(=O)c1c(C)n(Cc2ccco2)c2ccc(O)cc12	0.0%	1%	4%	-2%	-17%	?	-7%	2%
CCCc1cc(C(=O)N2CCCC(Cc3cccc(Cl)c3)(C(=O)OCC)C2)n(C)n1 (stereo unspecified)	nt	-14%	nt	nt	nt	-16%	-7%	-7%
O=C(CN1CCOCC1)N1CCCc2c1c(=O)oc1ccc(OCc3ccccc3)cc21	-8.3%	-17%	?	?	-10%	-23%	0%	-13%
CCCOc1ccc(N2C(=O)CC(N(Cc3ccco3)C(=O)CCC(=O)O)C2=O)cc1 (stereo unspecified)	nt	-1%	nt	-15%	11%[46.1 µM]	-7%	0%	14%
COc1ccccc1NNC(=O)C(O)(c1ccccc1)c1ccccc1	nt	3%	nt	10%	?	-18%	2%	-4%
CC1(C)CC(=O)C2=C(C1)NC1=C(C(=O)c3ccccc31)C2c1cccnc1 (stereo unspecified)	nt	0%	nt	nt	nt	-18%	0%	-3%
Cc1ccc(C(=O)N/N=C/c2cc(C)n(-c3ccc(Br)cc3)c2C)cc1[N+](=O)[O-]	1.8%	10µM*	20µM*	-18%	?	4%	-4%	29%
Cc1ccc(N/C=C2\C(=O)C3(C)CCC2C3(C)C)cc1C (stereo unspecified)	nt	nt	nt	-25%	-25%[46.1 µM]	11%	-2%	5%
O=C(C(=O)N1CCCCC1)c1c(-c2ccccc2)[nH]c2ccccc12	nt	-1%	nt	-17%[46.1 µM]	-6%[46.1 µM]	11%	-2%	9%
Cc1ccc(OCCOc2cccc3ccc(C)nc23)c([N+](=O)[O-])c1	nt	-6%	nt	10%[46.1 µM]	4%[46.1 µM]	-1%	0%	-20%
CC(=O)Nc1ccc(S(=O)(=O)NCC2CCC(C(=O)N3CCN(c4ccccn4)CC3)CC2)cc1 (stereo unspecified)	-0.7%	-18%	14%	0%	?	-29%	-6%	-18%
COC(=O)c1ccc(CSc2nc3ccccc3[nH]2)o1	2.1%	-13%	8%	18%	7%	18%	-9%	1%
COc1cc(OC)cc(C(=O)N[C@H](C(=O)Nc2ccccc2N2CCOCC2)C(C)C)c1	1.3%	-6%	8%	4%	?	22%	1%	-1%
COc1ccc(C(=O)O)cc1S(=O)(=O)Nc1ccc(N2CCCCC2)cc1	nt	nt	nt	24%[46.1 µM]	15%[46.1 µM]	-1%	2%	-11%
Cc1ccc(NC(=O)C2CCN(S(=O)(=O)c3cccc4nonc34)CC2)cc1	nt	6%	nt	6%	?	-11%	0%	-13%
COc1ccc(Br)cc1/C=N/NC(=O)CNC(=O)c1cccnc1	nt	-3%	nt	-4%	-12%[46.1 µM]	6%	-4%	-8%
CC(=O)c1cc(CCC(=O)NC2CCCCCC2)oc1C	nt	-1%	nt	?	?	14%	1%	17%
COc1ccc(-n2nc(C(=O)NCC(=O)NCCc3ccc(OC)c(OC)c3)c3ccccc3c2=O)cc1	nt	-4%	nt	nt	11%[46.1 µM]	-23%	0%	?
CCCCN(CCCC)c1ccc(C(=O)c2ccccc2C(=O)O)c(O)c1	-25%	-3%	?	-23%	-1%	nt	-5%	2%
Cc1cnc2c(c1SCC(=O)Nc1ccc(F)cc1F)c(=O)n(C)c(=O)n2C	1.1%	nt	14%	1%[46.1 µM]	nt	-19%	nt	nt
CCOC(=O)c1cc(-c2ccc(C)cc2)n(CC(=O)Nc2ccccc2F)c1C	0.5%	nt	18%	nt	-12%[46.1 µM]	13%	nt	nt
CCN=C(Nc1cccc(F)c1)SC1CC(=O)N(c2ccc(OC)cc2)C1=O (stereo unspecified)	-4.3%	4%	25%	?	?	nt	-7%	8%
CC(C)(C)c1ccc(C(CC(=O)O)NC(=O)C23CC4CC(CC(C4)C2)C3)cc1 (stereo unspecified)	nt	16%	nt	nt	nt	-17%	4%	0%
Cc1[nH]n(-c2ccccc2)c(=S)c1C=Nc1ccc([N+](=O)[O-])cc1	-13%	2%	-12%	3%	-1%	-22%	-10%	39%
CCOc1nnnc2c1sc1nc(N3CCOCC3)c3c(c12)CCCC3	4.7%	8%	?	6%	3%	?	-4%	15%
Cc1nnc(N2CCC(C(=O)NCc3cccc(Cl)c3)CC2)c2nn(-c3ccccc3)c(C)c12	-15%	nt	-10%	?	nt	-23%	nt	nt
Cc1coc2cc3oc(=O)c(CC(=O)N(C)CC(=O)O)c(C)c3cc12	nt	2%	nt	26%[46.1 µM]	?	3%	-4%	-5%
COc1cc(NC(=O)Cn2cc(C(=O)c3ccc(F)cc3)c(=O)c3ccc(C)nc32)cc(OC)c1	-1.4%	nt	17%	2%[46.1 µM]	nt	?	nt	nt
Fc1ccc(-c2nnc(Cc3ccc(Cl)cc3)o2)cc1	nt	-32%	nt	nt	nt	51%[activator]	-10%	-8%
COc1cccc(OCCOCCN(C)CCO)c1	6.8%	8%	-6%	0%	23%	20%	1%	1%
Cc1n[nH]c(=O)c2c(NC(=O)CSc3nnnn3-c3ccc(O)cc3)oc(C)c12	nt	nt	nt	16%	?	-7%	0%	-12%
CCN1CCN(S(=O)(=O)c2cc(OC)ccc2OC)CC1	2.4%	-3%	-17%	25%[14.3 µM]	0%	10%	2%	-2%
NC(=O)COc1ccc2oc(=O)cc(-c3cc4ccccc4o3)c2c1	nt	4%	nt	nt	nt	-26%	?	10%
CCCCC(CC)C(=O)Nc1cc(=O)[nH]c2nc3ccccc3n12 (stereo unspecified)	nt	0%	nt	nt	nt	0%	0%	-5%
Cc1ccc(OCC(=O)NNC(=O)c2cc3ccccc3o2)cc1C	-16%	6%	?	9%	20%	24%	5%	-8%
O=C(O)CCc1ccc(-c2cccs2)n1NC(=O)c1ccccc1Br	-3.4%	9%	-5%	15%	?	-12%	-3%	-4%
Cc1cc(C)n(CC(=O)N2CCCC(N3CCN(Cc4ccc5c(c4)OCO5)CC3)C2)n1 (stereo unspecified)	nt	2%	nt	?	10%	-20%	-1%	-7%
O=C(Nc1ccccc1F)C(=O)c1cn(CC(=O)N2CCCCC2)c2ccccc12	nt	nt	nt	-2%	19%[46.1 µM]	18%	-2%	-8%
CCN(CC)c1ccc(/C=N/NC(=O)c2c[nH]c3ccccc23)cc1	-16%	-5%	-19%	11µM*	4%	6%	-4%	16%
CC(=O)c1ccc(NC(=O)c2ccc(-n3cncn3)c([N+](=O)[O-])c2)cc1	nt	-2%	nt	5%	31%	-7%	5%	-7%
O=C(NCc1ccc2c(c1)OCO2)Nc1ccc2nsnc2c1	nt	2%	nt	0%	12%[46.1 µM]	20%	0%	-1%
O=C(Nc1cccc(C(=O)O)c1)/C(=C\c1ccccc1Cl)NC(=O)c1ccco1	nt	-6%	nt	?	1%	-12%	5%	2%
COc1cccc(C(=O)NN2c3ccccc3CCc3ccccc32)c1	-0.6%	16%	?	7%	3%	-14%	-8%	-1%
CN1C(=O)Cc2cc(S(=O)(=O)Nc3ccc(Cl)cc3)ccc21	nt	15%	nt	?	6%[46.1 µM]	10%	1%	-5%
COc1cc(OC)c(NC(=O)CCc2nc(-c3cccs3)no2)cc1Cl	2.4%	-37%	-5%	-20%	?	-16%	4%	-4%
CCOc1ccc2nc(NC(NC(=O)CC)(C(=O)OC)C(F)(F)F)sc2c1 (stereo unspecified)	-1.9%	-47%	5%	1%	2%	-7%	6%	13%
O=C1CC(=O)N(CCNc2ncc(C(F)(F)F)cc2Cl)C(=O)N1	-2.7%	?	-7%	-6%	6%	-15%	16%	0%
COc1ccc(S(=O)(=O)N2CCCCCC2)cc1C(=O)N(C)CC(=O)Nc1ccc(Cl)c(Cl)c1	nt	nt	nt	-17%	?	-13%	0%	-1%
CCN(CC(=O)NCc1ccc(F)cc1)C(=O)Cc1ccc(OC)cc1	nt	21%	nt	-12%	?	-2%	0%	15%
O=C(c1ccccc1)C1CCN(C(=O)Nc2ccccc2)CC1	nt	-4%	nt	11%	15%[46.1 µM]	25%	-1%	-6%
Cc1cccc(NC(=S)Nc2ccc3cn[nH]c3c2)c1	-2.5%	4%	3%	14%	11%	25%	3%	9%
CCCCCCCCN1C(=O)C(O)=C(C(C)=O)C1c1ccccn1 (stereo unspecified)	-4.2%	-39%	12%	14%	9%	-16%	7%	-2%
CCN(CC)C1=C(Cl)C(=O)C(Cl)C12OCCO2 (stereo unspecified)	nt	1%	nt	4%	?	-20%	1%	-10%
Cc1ccc(N(CC(=O)N2CCCCCC2)S(C)(=O)=O)cc1Cl	nt	-7%	nt	nt	nt	-2%	-3%	-5%
CCc1ccc(NC(=O)CN(c2ccc(Cl)cc2)S(=O)(=O)c2ccsc2C(=O)OC)cc1	-4.8%	nt	-17%	?	nt	-4%	nt	nt
COc1cc(/C=C2\SC(=S)N(N(C)c3ccccc3)C2=O)ccc1O	nt	8%	nt	nt	nt	-3%	1%	4%
CCn1c(=O)n(CC(=O)N2CCN(c3ccccc3F)CC2)c(=O)c2ccccc21	0.9%	2%	9%	2%	?	-27%	-3%	-10%
COc1ccc(/C(O)=C2/C(=O)C(=O)N(CCN(C)C)C2c2ccc(OC)c(OC)c2)c(C)c1 (stereo unspecified)	-6.4%	3%	6%	-3%	5%&5%	-14%	4%	3%

Bioassay records (PubChem BioAssay)
